Assay outcomes deposited in PubChem BioAssay by Broad Institute.
YB-1 expression = YB-1 expression inhibition. delta delta Cp (YB-1 minus CDIP) (no concentration beside the values). U2OS, qRT-PCR YB-1 vs CDIP delta delta Cp, 16 h; hits give high values; zero = DMSO, each unit about twofold. 30,000 compounds, 0.37% hits;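 active means delta delta Cp rounded down to an integer at or above 3, about 3 SD of DMSO wells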;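 further: higher means less YB-1 transcript or more CDIP transcript relative to DMSO; stock transfer was 100 nL into about 100 µL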
PD-1 reverse act = activators reversing PD-1 mediated T-cell inhibition; activation, % (test concentration not listed); primary human CD4 T cells, PD-L1 beads, CellTiter-Glo 96 h; 29,000 tested, under 10 active;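 active means replicate mean of 50% or more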;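 further: 0% = median vehicle wells and 100% = positive control; 100 nL library stock added to about 50 µL; numbers are from one replicate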
MITF inh = MITF inhibition; TRPM1 promoter luciferase, luminescence, 24 h; inhibition, % (concentration not given with the values); 37,000 compounds, 0.28% hits; AID 2240;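 active means most replicates at 85% or more, or half of them and the mean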;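 further: human melanocyte line stably carrying TRPM1 promoter luciferase reporter; 0% = vehicle wells and 100% = a positive control; the first replicate is given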
Hedgehog inh = Sonic Hedgehog pathway inhibition; Shh-LIGHT2 Gli-luciferase reporter, 30 h; inhibition, % (no concentration beside the values); 22,000 compounds, 2.1% hits;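 active means replicate mean of 65% or more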;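 further: pathway switched on by Shh-conditioned medium diluted 1 in 25 in low serum; 100 nL library stock added to about 40 µL; 0% = median of neutral wells and 100% = positive control level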
* hit, by the source's call; / = no result given.

The line under a structure holds: YB-1 expression, PD-1 reverse act, MITF inh, Hedgehog inh
> CCCc1nn(C)c2c(=O)[nH]c(-c3cc(S(=O)(=O)N4CCN(C)CC4)ccc3OCC)nc12
 : -0.0425, /, 3.5, -51.4
> C[C@@H]1CN([C@H](C)CO)C(=O)c2cccc(NC(=O)c3ccncc3)c2O[C@@H]1CN(C)C(=O)NC1CCCCC1
 : -0.756, 0.1, -8.1, 6.6
> Cc1ccc(C(C)C)c(OCC(=O)Nc2cc(-c3nc4ccccc4o3)ccc2C)c1
 : /, 0.0, 26.8, /
> CNC[C@@H]1Oc2ccc(NC(=O)CCN3CCOCC3)cc2CC(=O)N([C@H](C)CO)C[C@H]1C
 : 9.51*, 0.6, -0.3, 5.2
> COc1ccc(S(=O)(=O)N(C)C[C@H]2Oc3ccc(NC(=O)Cn4cnnn4)cc3C(=O)N([C@H](C)CO)C[C@@H]2C)cc1
 : -0.55, 0.2, 10.5, /
> CCCCC/C=C\C/C=C\CCCCCCCC(N)=O
 : 0.107, 5.2, -3.2, 43.8
> C[C@@H]1CN([C@@H](C)CO)C(=O)c2cc(NC(=O)CCC(F)(F)F)ccc2O[C@H]1CN(C)Cc1ccncc1
 : 0.429, 1.0, -2.1, /
> COC(=O)c1ccc(C(=O)Nc2ccc(C(F)(F)F)cc2)nc1
 : -0.241, 1.7, -38.1, -48.8
> C[C@H]1CN([C@@H](C)CO)C(=O)c2cccc(N(C)C)c2O[C@@H]1CN(C)Cc1ccncc1
 : 0.43, /, -4.1, -28.4
> C[C@@H]1CN([C@H](C)CO)C(=O)c2cc(NS(=O)(=O)c3cccs3)ccc2O[C@@H]1CN(C)S(=O)(=O)c1ccccc1
 : 0.0423, /, -0.2, -35.4
> C[C@H](CO)N1C[C@H](C)[C@@H](CN(C)S(C)(=O)=O)Oc2ccc(NC(=O)c3ccncc3)cc2C1=O
 : 0.11, /, 1.2, -132.6
> Cc1ccc(C(=O)C2C(=O)C(=O)N(Cc3cccnc3)C2c2ccc(Cl)c(Cl)c2)o1 (stereo not drawn)
 : /, 1.1, -1.9, /
> COc1ccc([N+](=O)[O-])cc1NC(=O)c1ccccc1N(C)S(C)(=O)=O
 : /, -0.8, -4.0, /
> C[C@@H]1CN([C@@H](C)CO)C(=O)c2cccc(NC(=O)C3CCOCC3)c2O[C@H]1CN(C)C
 : 0.102, 1.8, 5.7, -14.6
> CC(=O)NCCc1ccc(O)cc1
 : 0.144, -0.2, 7.8, -17.3
> COc1ccc(NC(=O)CSc2nnc(-c3ccncc3)o2)cc1
 : /, 4.8, -2.8, /
> C[C@@H]1CN([C@@H](C)CO)C(=O)c2cc(NC(=O)NC3CCCCC3)ccc2O[C@H]1CN(C)S(=O)(=O)c1ccc(F)cc1
 : -0.149, 1.0, -7.9, -0.6
> CC(=O)O[C@@H]1[C@@H](OC(=O)/C=C/c2ccccc2)[C@@H](OC(=O)/C=C/c2ccccc2)[C@H](O[C@H]2[C@@H]3C=CO[C@@H](O[C@@H]4O[C@H](CO)[C@@H](O)[C@H](O)[C@H]4O)[C@@H]3[C@@]3(CO)O[C@@H]23)O[C@H]1C
 : -0.0839, 1.3, -1.9, -10.1
> COc1ccc(S(=O)(=O)N(C)C[C@@H]2Oc3ccc(NC(=O)CCCN(C)C)cc3CC(=O)N([C@@H](C)CO)C[C@@H]2C)cc1
 : -0.144, 0.4, -6.5, /
> O=C(CCN1C(=O)c2cccc([N+](=O)[O-])c2C1=O)Nc1ccccc1C(F)(F)F
 : /, -0.4, 2.6, /
> Cc1cc(C)cc(NC(=O)COc2ccc3cc(-c4ccccc4)c(=O)oc3c2)c1
 : /, -3.7, -24.1, /
> Cc1c(NC(=O)CSc2nnnn2-c2ccc(O)cc2)c(=O)n(-c2ccccc2)n1C
 : /, -0.3, 6.5, /
> CS(=O)(=O)N(CC(=O)Nc1c(F)cccc1F)C1CCCCC1
 : /, 0.9, -9.3, /
> C[C@H]1CN([C@@H](C)CO)C(=O)c2cc(NC(=O)C3CC3)ccc2O[C@@H]1CN(C)Cc1ccc(C(F)(F)F)cc1
 : 0.54, 2.0, 5.8, /
> COc1ccc(NC(=O)Nc2cccc3c2O[C@@H](CN(C)C(=O)NC2CCCCC2)[C@@H](C)CN([C@H](C)CO)C3=O)cc1
 : 0.0247, /, 0.0, -0.4
> CN1CCN(NC(=O)CCN2C(=O)/C(=C\c3ccccc3)SC2=S)CC1
 : -0.0177, 0.2, 3.6, -6.3
> C[C@H](CO)N1C[C@H](C)[C@H](CN(C)CC2CCCCC2)Oc2ccc(NS(C)(=O)=O)cc2CC1=O
 : -0.308, /, -4.2, -22.1
> Cc1cccc(C)c1NC(=O)C1CC=CCC1C(=O)O (stereo not drawn)
 : /, 2.6, -1.9, /
> O=C(N1CC(Oc2ccc(Cl)cc2)C1)N1CC(Oc2ccc(Cl)cc2)C1
 : -0.0384, 4.2, 21.9, 33.3
> Cc1ccc(-c2nc3ccccc3[nH]2)cc1NC(=O)COc1cccc([N+](=O)[O-])c1
 : /, -1.4, -4.4, /
> COc1ccccc1NC(=O)COc1ccc(CO)cc1Cl
 : /, -3.3, -132.8, /
> C[C@H]1CN([C@@H](C)CO)C(=O)c2cc(NC(=O)CCCN(C)C)ccc2O[C@H]1CN(C)S(=O)(=O)c1ccccc1
 : 0.0655, 0.7, 5.5, 5.5
> CC1=CC(C)(C)N(C(C)C)C(=O)N1c1ccc(C)cc1
 : -0.0989, -0.8, 8.1, /
> Cc1noc(C)c1NC(=O)N(C)C[C@H]1Oc2ccc(NC(=O)CCCCCC(=O)Nc3ccccc3N)cc2C(=O)N([C@H](C)CO)C[C@@H]1C
 : 0.0809, 1.2, 5.8, /
> CC1CCC(C(C)C)C(=O)/C1=C\c1ccc(NC(=O)CCC(=O)O)cc1 (stereo not drawn)
 : -0.0514, 0.7, -6.2, /
> COc1cc(NS(=O)(=O)c2ccc(N)cc2)nc(OC)n1
 : 0.0514, /, 10.5, -43.1
> NS(=O)(=O)c1cc(C(=O)O)cc(N2CCCC2)c1Oc1ccccc1
 : -0.421, /, -1.8, -8.8
> COc1ccc(NC(=O)Nc2ccc3c(c2)CC(=O)N([C@@H](C)CO)C[C@H](C)[C@@H](CN(C)S(=O)(=O)c2c(C)noc2C)O3)cc1
 : 0.0459, -1.3, -12.0, /
> C[C@H](CO)N1C[C@H](C)[C@H](CN(C)CC2CCCCC2)Oc2ccc(NC(=O)Cc3ccccc3)cc2C1=O
 : 0.31, -1.7, -1.9, -5.3
> O=C(Nc1ccc(I)cc1C(=O)NCc1ccco1)c1ccco1
 : /, -2.5, -8.0, /
> CC1OC(O[C@H]2[C@@H](O)C[C@@]3(C)C([C@H](O)C[C@]4(C)C3CC=C3[C@@H]5CC(C)(C)CC[C@]5(C(=O)OC5OC(C)C(OC6OCC(OC7OCC(O)C(OC8OCC(O)C(O)C8O)C7O)C(O)C6O)C(O)C5O)CC[C@]34C)[C@]2(C)CO)C(O)C(OC2OC(CO)C(O)C(O)C2O)C1O (stereo partly drawn)
 : -0.996, -7.3, -4.0, -27.2
> CC(=O)OC(CCCCCCCCCC(C)O)Cc1cc(O)cc(O)c1 (stereo not drawn)
 : 0.0138, 0.8, 9.7, -30.1
> CCCc1c(O)nc(SC2CC(=O)N(c3ccc(Oc4ccccc4)cc3)C2=O)[nH]c1=O (stereo not drawn)
 : /, -0.6, 2.3, /
> C[C@H]1CN([C@@H](C)CO)C(=O)c2cccc(NC(=O)C3CC3)c2O[C@H]1CN(C)Cc1ccc(Oc2ccccc2)cc1
 : -0.34, 0.4, 4.1, 52.4
> COc1ccc(NC(=O)Nc2nn(Cc3ccc(Cl)cc3Cl)cc2Br)cc1OC
 : /, -0.6, 34.0, /
> COc1ccc(S(=O)(=O)N(C)C[C@@H]2Oc3ccc(NC(=O)c4ccncc4)cc3CC(=O)N([C@H](C)CO)C[C@@H]2C)cc1
 : 0.333, 1.7, -9.2, 4.8
> C[C@@H]1CN([C@@H](C)CO)C(=O)c2cc(NC(=O)CCCCCC(=O)Nc3ccccc3N)ccc2O[C@H]1CN(C)S(=O)(=O)c1ccc(F)cc1
 : 0.109, 0.9, -0.5, /
> O=C(CNS(=O)(=O)c1ccc(Br)cc1)Nc1cccc2ccccc12
 : /, 0.0, 15.8, /
> COc1ccc(NC(=O)N(C)C[C@H]2Oc3ccc(NC(=O)Nc4ccccc4)cc3CC(=O)N([C@@H](C)CO)C[C@H]2C)cc1
 : 0.297, /, -5.7, /
> CCC(Sc1nc(C)cc(C)n1)C(=O)Nc1ccc(-c2nc3ccc(C)cc3s2)cc1 (stereo not drawn)
 : /, -0.8, -55.5, /
> C[C@@H]1CN([C@H](C)CO)C(=O)c2cccc(NC(=O)C3CCCCC3)c2O[C@@H]1CN(C)Cc1ccc(C(F)(F)F)cc1
 : -0.121, -1.8, -5.7, -14.9
> C[C@H]1CN([C@@H](C)CO)C(=O)Cc2cc(N(C)C)ccc2O[C@@H]1CN(C)Cc1ccccc1
 : 0.157, /, 1.1, -5.0
> C[C@@H]1CN([C@H](C)CO)C(=O)Cc2cc(NC(=O)Nc3ccc4c(c3)OCO4)ccc2O[C@H]1CN(C)C(=O)Nc1ccc(C(F)(F)F)cc1
 : -0.214, /, -1.9, -9.0
> COc1cc(-c2cc(=O)c3c(O)c(OC)c(OC)c(OC)c3o2)cc(OC)c1OC
 : -0.351, 2.0, -43.2, 20.8
> COc1ccc(S(=O)(=O)Nc2cc(C)cc(C)c2)cc1
 : -0.464, -0.1, 41.6, -10.9
> COc1ccc(NC(=O)Nc2ccc3c(c2)C(=O)N([C@H](C)CO)C[C@H](C)[C@H](CN(C)Cc2ccc(Cl)c(Cl)c2)O3)cc1
 : 0.637, -0.6, 28.3, 7.3
> COC(=O)c1ccc(NC(=O)CN(c2ccc(F)c(Cl)c2)S(C)(=O)=O)cc1
 : /, -0.6, -8.1, /
> COC(=O)c1ccccc1NC(=O)c1ccc(NC(=O)C(C)Oc2ccccc2)cc1 (stereo not drawn)
 : /, 1.8, -21.7, /
> COc1cc2c(cc1O)C(Cc1ccc(O)cc1)N(C)CC2 (stereo not drawn)
 : -0.127, 0.3, 0.7, 10.0
> Cc1cccc(OCC(=O)Nc2ccc(Cl)c(-c3nc4ccccc4o3)c2)c1
 : /, 0.5, 0.6, /

Following part
The line under a structure holds: YB-1 expression, PD-1 reverse act, MITF inh, Hedgehog inh
> CCN(CC)S(=O)(=O)c1ccc(OC)c(NC(=O)c2cccnc2)c1
 : /, 1.1, -17.1, /
> COc1ccc(CN(C)C[C@H]2Oc3ccc(NC(=O)Cc4cn(C)c5ccccc45)cc3C(=O)N([C@H](C)CO)C[C@H]2C)cc1
 : -0.0931, -0.9, 0.8, 4.6
> COc1ccc(NC(=O)N(C)C[C@H]2Oc3c(NC(=O)NC4CCCCC4)cccc3C(=O)N([C@@H](C)CO)C[C@H]2C)cc1
 : -0.137, 0.6, 10.2, -20.4
> COC(=O)CSc1nc(C)c2ccc(OC)cc2n1
 : /, 0.5, 9.5, /
> CC(NC(=O)c1ccccc1)c1nc2ccccc2n1Cc1ccc(Cl)cc1Cl (stereo not drawn)
 : /, -4.4, 11.9, /
> C[C@H](CO)N1C[C@H](C)[C@H](CN(C)Cc2ccc(Cl)c(Cl)c2)Oc2c(NS(=O)(=O)c3cccs3)cccc2C1=O
 : -0.433, -1.1, 7.6, 98.4*
> C[C@H]1CN([C@@H](C)CO)C(=O)c2cc(NC(=O)Cc3cn(C)c4ccccc34)ccc2O[C@H]1CN(C)S(C)(=O)=O
 : 0.386, 2.2, 7.4, /
> C[C@@H]1CN([C@@H](C)CO)C(=O)c2cccc(NS(=O)(=O)c3ccccc3)c2O[C@H]1CN(C)S(=O)(=O)c1ccc(Cl)cc1
 : -0.258, /, 1.2, -9.6
> CNC[C@@H]1Oc2ccc(NS(=O)(=O)c3ccc(OC)cc3)cc2CC(=O)N([C@H](C)CO)C[C@@H]1C
 : -0.328, 0.9, 3.2, -4.4
> NCCCCCCNS(=O)(=O)c1cccc2c(Cl)cccc12
 : -0.222, -0.1, -1.5, -5.8
> COc1ccc(C)cc1S(=O)(=O)N(CC(=O)O)c1ccc(C)cc1
 : /, 1.8, 6.0, /
> O=C(CSc1nnc(-c2ccccc2[N+](=O)[O-])o1)c1cccs1
 : /, -0.5, -85.2, /
> c1ccc(-c2nnc(SCc3nc4ccccc4[nH]3)n2C2CCCCC2)cc1
 : /, -0.1, -10.5, /
> CCOC(=O)c1cnc(SCC(=O)Nc2ccc(F)c(F)c2F)nc1N
 : /, 2.3, 10.2, /
> C[C@@H]1CN([C@H](C)CO)C(=O)c2cc(NC(=O)c3ccncc3)ccc2O[C@H]1CN(C)Cc1ccc(Cl)c(Cl)c1
 : -0.242, 2.0, -8.7, /
> C[C@@H]1CN([C@H](C)CO)C(=O)c2cc(N(C)C)ccc2O[C@H]1CN(C)Cc1ccc(-c2ccccc2)cc1
 : -0.134, -2.5, 2.7, 12.1
> Cc1noc(C)c1S(=O)(=O)Nc1ccc2c(c1)CC(=O)N([C@H](C)CO)C[C@H](C)[C@H](CN(C)C(=O)Nc1ccc(C(F)(F)F)cc1)O2
 : 0.163, -1.7, -6.7, -3.0
> C[C@@H]1CN([C@H](C)CO)C(=O)c2cccc(NC(=O)Nc3ccc(C(F)(F)F)cc3)c2O[C@H]1CN(C)S(=O)(=O)c1ccc(Cl)cc1
 : 0.204, -1.0, -4.0, -14.1

Only part of the results is shown. The share of hits here may be higher or lower than overall.
